High-throughput results (PubChem)
NPYLR7 agonist: mosquito NPYLR7 agonism | HEK293T NPYLR7/Galpha15, GCaMP6s calcium fluorescence | activation, % at 10 µM | 270,000 compounds, 0.15% hits; in the data active = activation above about 40%;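 also: 0% = vehicle and 100% = reference agonist at the receptor; some compounds past the cut are filed as inactive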
NPYLR7 agonist max-min: also measured in NPYLR7 agonist; calls as there; activation, %; measured here: Max-Min RFU normalised activation; some inactives read as strong as hits;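 span of the calcium signal over five minutes; 0% = vehicle and 100% = native peptide agonist; compound fluorescence can raise it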
* marks the source's active call; other numbers are inactive results; & = joins results of further samples.

SMILES | NPYLR7 agonist | NPYLR7 agonist max-min
CCOc1ccc(N2C(=O)C3N=NN(Cc4cc(C(=O)OC)ccc4OC)C3C2=O)cc1 (stereo not drawn) | 2.5 | -5.7
Cc1[nH]ccc1C(=O)N1CCC2CCCCC21 (stereo not drawn) | 3.0 | 1.1
CN(CC(=O)NC1CC1)CC(=O)N(C)Cc1ccccc1Br | 2.7 | -1.6
O=C(Cn1cnc2sccc2c1=O)N1CCCSc2ccccc21 | -4.0 | -6.8
CC(C)CNC(=O)C(C)(C)n1cc(-c2ccc3c(c2)OCO3)cn1 | 5.9 | 9.0
COCCN(CC(=O)Nc1nc(CC(=O)N2CCC(Cc3ccccc3)CC2)cs1)C(=O)c1ccc(F)cc1 | -7.6 | -4.8
CC(=O)O[C@H]1CC2CCC3C(CC[C@@]4(C)C3C[C@H]([N+]3(C)CCCCC3)[C@@H]4OC(C)=O)[C@@]2(C)C[C@@H]1[N+]1(C)CCCCC1 (stereo partly drawn) | -3.3 | -8.8
Cc1ccccc1NC(=O)C(=O)NC1CCCN(C(=O)c2ccco2)C1 (stereo not drawn) | 16.4 | 9.0
CCCN(Cc1ccccn1)C(=O)c1oc2cc(OC)ccc2c1C | 0.7 | -4.3
CCOC(=O)[C@H]1C[C@]2(CCCCN(CCO)C2=O)N(C(=O)Nc2ccccc2)[C@H]1c1ccco1 | -0.2 | 7.0
CC(C)(C)CC(=O)Nc1c(-c2cccc(F)c2)nc2ccccn12 | -1.8 | 4.7
O=C(CCc1ccc(O)cc1)c1c(O)cc(O)cc1O[C@@H]1O[C@H](CO)[C@@H](O)[C@H](O)[C@H]1O | -5.8 | -13.7
COc1cccc(NC(=O)COc2ccc(C(=O)N3CCC4(CC3)OCCO4)cc2)c1 | -4.9 | -5.6
CCCS(=O)(=O)Nc1cccc(-c2ccc3nnc(-c4cccnc4)n3n2)c1 | -13.6 | -12.0
O=C(c1ccccc1N1C(=O)c2cccc3cccc(c23)C1=O)N1CCOCC1 | -5.0 | -13.7
Cc1nc2c(=O)n(CC(=O)c3ccc(C(C)C)cc3)nc(-c3ccco3)c2s1 | 0.7 | -2.2
CCCc1nc(C)cc(NCCO)n1 | 4.4 | 3.9
CCOc1ccc2nc(NC(=O)c3ccn(C)n3)sc2c1 | -11.4 | -14.3
Cc1nc(CCNC(=O)CC2C(=O)NCCN2Cc2ccccc2)nc2c1CCC2 (stereo not drawn) | -1.9 | -3.7
COC(=O)c1ccc(S(=O)(=O)NC(C)Cn2cncn2)c(C)c1 (stereo not drawn) | 9.8 | 4.9

Part of the list above in another layout:
| molecule | NPYLR7 agonist | NPYLR7 agonist max-min |
| --- | --- | --- |
| Cc1nc2c(=O)n(CC(=O)c3ccc(C(C)C)cc3)nc(-c3ccco3)c2s1 | 0.7 | -2.2 |
| CCCc1nc(C)cc(NCCO)n1 | 4.4 | 3.9 |

Other entries follow.
SMILES | NPYLR7 agonist | NPYLR7 agonist max-min
COc1cc(Cl)ccc1C(=O)NS(=O)(=O)Cc1ccc(Cl)nc1 | 2.5 | -4.5
CN(Cc1cccc(-n2cccn2)c1)Cc1nc(-c2ccc(C(F)(F)F)cc2)no1 | 6.0 | 4.0
CNC(=O)[C@H]1CN(C(=O)c2ccc3c(c2)OCCCO3)[C@]2(C)C(=O)Nc3ccccc3[C@H]12 | 24.1 | 22.1
Cn1nc(C(C)(C)C)cc1NC(=O)c1ccc(S(=O)(=O)C(F)F)cc1 | 2.9 | 2.2
Nc1cc(-c2cccc(Cl)c2)nn1-c1ccc(C(=O)N2CCC[C@H]2C(=O)OCc2ccccc2)cc1 | -6.4 | -9.4
CN1CCN(c2cc(=O)n(C3CCCCC3)c(=O)[nH]2)CC1 | 2.9 | 8.8
COc1ccc(S(=O)(=O)N2CCOCC2)cc1N1CCN(C(=O)c2ccno2)CC1 | 13.7 | 8.9
CC(C)c1nc(CN(C)C(C)c2cc3ccccc3o2)cs1 (stereo not drawn) | -0.5 | -0.9
O=C(c1cc(COc2ccc3c(c2)OCO3)[nH]n1)N1CCCO1 | 1.2 | -1.0
COc1ccc(-n2nc(C(=O)Nc3ccccc3)c(=O)n(Cc3ccccc3C)c2=O)cc1OC | 1.9 | 6.5
CCN(CC)c1ccc(CN(C)S(=O)(=O)c2ccc(F)cc2)cc1 | 3.5 | 0.6
C=CCn1c(=O)c2c(nc3n(CC)c(C)cn23)n(C)c1=O | 29.9 | 16.7
COc1ccc(CN(Cc2cccn2Cc2ccc(F)cc2)CC2CCCCC2)cc1 | 4.7 | 12.7
CCCCOc1ccc(C2=N/C(=C/c3cccc(Br)c3)C(=O)O2)cc1 | -5.5 | -11.9
O=C1CC(C(=O)N2CCN(S(=O)(=O)c3c(Cl)cccc3Cl)CC2)c2ccc(F)cc2N1 (stereo not drawn) | 6.0 | 6.0
CC1C(OC(=O)CN2CCC(=O)NC2=O)CC2CC1C2(C)C (stereo not drawn) | 8.9 | 6.1
Cc1ccc(-c2ccnc(NCCSc3n[nH]c(C)n3)n2)c(C)n1 | 3.7 | -4.8
CC(=O)Cn1c(=O)c2c(nc3n2CCN3c2ccc(C)cc2)n(C)c1=O | 1.9 | 2.3
CSCCC(N=C1NS(=O)(=O)c2ccccc21)C(=O)O (stereo not drawn) | 5.9 | 5.6
O=C(Nc1ccc(N2CCCCC2)cc1)OCC(F)(F)F | 8.2 | 5.6
O=C(C(F)F)N1CCC(n2cnc3cc(C(F)(F)F)ccc32)CC1 | 4.6 | 3.9
COc1ccc(S(=O)(=O)N2CCC(n3c(=O)[nH]c4ccccc43)CC2)cc1 | 4.5 | 1.2
O=C(CN1Cc2ccc(N3CCOCC3)nc2C1=O)NCc1cccnc1 | -9.2 | -9.9
CN(C)C(=O)CN1C(=O)NC(C)(c2ccc(F)cc2)C1=O (stereo not drawn) | 0.7 | 7.6
CSc1nc2c(c(=O)n1-c1ccccc1)SC(C)C2 (stereo not drawn) | -0.3 | -6.0
CCOC(=O)C1(CC2CC2)CCN(C(=O)c2ccc(-n3nc(C)cc3C)cc2)CC1 | 0.3 | -4.2
O=C1c2ccccc2C(=O)c2c1ccc(O)c2O | -16.1 | -20.5
CN(C(=O)CSc1nccnc1N1CCN(c2ccccc2)CC1)c1ccc(F)cc1 | 3.8 | 4.1
COc1ccccc1NC(=O)NC1CC(=O)N(Cc2ccccc2Cl)C1 (stereo not drawn) | -5.8 | -6.4
COc1ccc(CC(=O)N2CCc3cc([N+](=O)[O-])ccc32)cc1 | 0.2 | -5.7
CCC(C)(C)NC(=O)CONC(=O)c1cccc(Br)c1 | 3.8 | 3.9
CCN1CCN(c2c(CN(CCOC)C(=O)c3ccccc3OC)c(C)nn2-c2cccc(F)c2)CC1 | 1.9 | 22.0
COc1c(C)cc(C(=O)C2CCCN(Cc3cc(=O)[nH]c(=O)[nH]3)C2)cc1C (stereo not drawn) | -4.0 | -6.4
O=C1C(=C2CCCCC2)SC(=S)N1CO | 9.5 | 13.6
COc1ccccc1-c1nc2cc(C)cc(C)n2c1Nc1c(C)cccc1C | 25.3&-1.6 | 19.3&5.2
CCOc1c(C)cnc2c1c(=O)n(Cc1ccc(C)cc1)c(=O)n2C | 4.0 | 3.7
Cc1cc(OCC(=O)Nc2c(C)cccc2C)nc(N2CCN(c3ccccc3)CC2)n1 | -4.2 | -7.5
CC(C)NC(=O)Cn1c(CO)cnc1SCC(=O)Nc1ccccc1 | 0.4 | -1.2
c1ccc2c(c1)nc(NC1CCCCCC1)c1nnnn12 | 5.2 | 2.5
C1=CN2CCC1C(c1ccccc1)C2 (stereo not drawn) | -8.1 | -10.1
CCCCc1c(O)c2ccc(Cl)c(Cl)c2[nH]c1=O | -8.6 | -11.4
COC(=O)C1CCCCN1C(=O)C1CC(Cc2ccc(F)cc2)=NO1 (stereo not drawn) | 14.0 | 5.3
CC(C(=O)NCc1cn[nH]c1-c1cccs1)n1cnc2ccccc21 (stereo not drawn) | -7.0 | -8.8
COCCNC(=O)C(NC(=O)c1cccc(OC)c1)C1CCN(C(=O)c2cccc(F)c2)CC1 (stereo not drawn) | -1.6 | 0.1
CC(=O)c1ccc(C(=O)N2CCc3c(c(C(=O)N(C)Cc4cscn4)nn3CC3CC3)C2)s1 | 18.5 | 8.2
Clc1ccc(C2Nc3ccc(Br)cc3C(c3ccccc3)O2)cc1 (stereo not drawn) | 7.4 | 12.8
CCCCCCOc1ccc(C(=O)Nc2nccs2)cc1 | 17.8 | 17.4
O=C(c1cccc(C(F)(F)F)c1)N(Cc1cccc(Oc2ccc(Cl)cc2)c1)Cc1ccco1 | -4.5 | -12.7
Oc1cc(-c2cccnc2)cc2c1OCCN(CCn1ccnc1)C2 | -18.2 | -18.9
COc1ccc(C(=O)NC2CCN(c3ccccc3C(=O)NCc3ccco3)CC2)cc1 | 7.3 | 18.6

Sorted by length of the SMILES (low to high): 20 of the compounds above
SMILES | NPYLR7 agonist | NPYLR7 agonist max-min
C1=CN2CCC1C(c1ccccc1)C2 (stereo not drawn) | -8.1 | -10.1
O=C1C(=C2CCCCC2)SC(=S)N1CO | 9.5 | 13.6
CCCCCCOc1ccc(C(=O)Nc2nccs2)cc1 | 17.8 | 17.4
c1ccc2c(c1)nc(NC1CCCCCC1)c1nnnn12 | 5.2 | 2.5
CCCCc1c(O)c2ccc(Cl)c(Cl)c2[nH]c1=O | -8.6 | -11.4
CCC(C)(C)NC(=O)CONC(=O)c1cccc(Br)c1 | 3.8 | 3.9
Oc1cc(-c2cccnc2)cc2c1OCCN(CCn1ccnc1)C2 | -18.2 | -18.9
CC(C)NC(=O)Cn1c(CO)cnc1SCC(=O)Nc1ccccc1 | 0.4 | -1.2
Clc1ccc(C2Nc3ccc(Br)cc3C(c3ccccc3)O2)cc1 (stereo not drawn) | 7.4 | 12.8
COc1ccccc1NC(=O)NC1CC(=O)N(Cc2ccccc2Cl)C1 (stereo not drawn) | -5.8 | -6.4
COC(=O)C1CCCCN1C(=O)C1CC(Cc2ccc(F)cc2)=NO1 (stereo not drawn) | 14.0 | 5.3
COc1ccccc1-c1nc2cc(C)cc(C)n2c1Nc1c(C)cccc1C | 25.3&-1.6 | 19.3&5.2
COc1ccc(CC(=O)N2CCc3cc([N+](=O)[O-])ccc32)cc1 | 0.2 | -5.7
CN(C(=O)CSc1nccnc1N1CCN(c2ccccc2)CC1)c1ccc(F)cc1 | 3.8 | 4.1
COc1ccc(C(=O)NC2CCN(c3ccccc3C(=O)NCc3ccco3)CC2)cc1 | 7.3 | 18.6
Cc1cc(OCC(=O)Nc2c(C)cccc2C)nc(N2CCN(c3ccccc3)CC2)n1 | -4.2 | -7.5
COc1c(C)cc(C(=O)C2CCCN(Cc3cc(=O)[nH]c(=O)[nH]3)C2)cc1C (stereo not drawn) | -4.0 | -6.4
COCCNC(=O)C(NC(=O)c1cccc(OC)c1)C1CCN(C(=O)c2cccc(F)c2)CC1 (stereo not drawn) | -1.6 | 0.1
O=C(c1cccc(C(F)(F)F)c1)N(Cc1cccc(Oc2ccc(Cl)cc2)c1)Cc1ccco1 | -4.5 | -12.7
CCN1CCN(c2c(CN(CCOC)C(=O)c3ccccc3OC)c(C)nn2-c2cccc(F)c2)CC1 | 1.9 | 22.0

Further entries
SMILES | NPYLR7 agonist | NPYLR7 agonist max-min
Cc1cccc(-c2cccc(NC(=O)C3CCCN(C(=O)Cn4ccc(C)n4)C3)c2)c1 (stereo not drawn) | 4.4 | 1.1
CN(Cc1ccccc1O)C(=O)c1cc(-c2cccc(Cl)c2)on1 | -2.9 | -1.8
C=CCn1cc(CNC[C@H]2C[C@H]3C=C[C@H]2C32CC2)c(C)n1 | 3.9 | 5.7
NC(=O)COC(=O)c1ccc([N+](=O)[O-])o1 | -0.7 | -2.1
CCc1nc2c(OCC(=O)N(C)C)cccn2c1N(C)C(=O)Nc1ccccc1OC | 7.5 | -4.4
CC1(C)Cc2c(cnn2-c2ccc([N+](=O)[O-])cc2)-c2[nH]c3ccccc3c21 | -11.9 | -16.1
COc1ccccc1OCC(=O)NCCOc1ccc2nnc(-c3ccccc3)n2n1 | 2.8 | 1.8
COc1cccc(C(=O)CC2(O)C(=O)Nc3ccc(Cl)cc32)c1 (stereo not drawn) | 8.4 | 8.4
COCCn1c(SCC(=O)C(C)(C)C)nc2scc(-c3ccc(F)cc3)c2c1=O | -1.7 | 30.7
COc1ccc(F)cc1C(=O)Nc1cc(S(=O)(=O)N2CCOCC2)ccc1N1CCOCC1 | 3.2 | 2.7
C=CCn1c(NCc2ccc(OC)cc2)nc2c1c(=O)[nH]c(=O)n2C | 2.4 | -0.7
COc1ccc(-c2ccc3c(c2)CNCC3)c2cccnc12 | 4.7 | 3.8
Clc1cccc(-c2cc3c(Nc4cccnc4)nccc3[nH]2)c1 | -4.4 | -10.7
O=[N+]([O-])c1ccc2c(c1)S(c1ccc(Br)cc1)=NS2(=O)=O (stereo not drawn) | 8.3 | 7.5
COc1ccc(CCN(C(C)=O)C2CC(=O)N(c3ccc(OC)cc3)C2=O)cc1 (stereo not drawn) | 0.4 | -1.0
COc1cc(OC)cc(C(=O)Oc2c(S(=O)(=O)c3ccccc3)c(C)nn2C(C)(C)C)c1 | 1.5 | 14.8
CCCCOC(=O)c1ccccc1NC(=O)N[C@@H](Cc1ccccc1)C(=O)N1CCC(C(=O)N2CCCCC2)CC1 | 19.1 | 9.3
Cc1cc(C(=O)N2CCc3c(cc(-c4ccncc4)c(=O)n3CCN3CCCCC3)C2)nn1C | 10.1 | 1.8
CCCCCc1ccc(-c2ccc(-c3nc(-c4ccncc4)no3)cc2)cc1 | -5.1 | -9.6
Cc1cccc(OCCn2c(SCC(=O)O)nc3ccccc32)c1 | -6.0 | -8.4
Cc1cccc(-c2nc3scc(CCNC(=O)C(C)(C)C)n3n2)c1 | -1.7 | -3.7

Only part of the results is shown; count on the stated rates, not on these rows.
